# Screening data (PubChem BioAssay)
# Sfp inh: Sfp phosphopantetheinyl transferase inhibition; Biochemical Sfp PPTase activity, qHTS; Potency, µM, for inactives: max response, negative = inhibition, hits mostly inhibitors; Q9F4F7; 3.5% of 310,000 active; active means well fitted inhibition curve with a large enough effect; inconclusive means small, poorly fitted or top-dose-only effect, or another doubt; inactive means no such curve, though single readings can be large or run the other way;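 further: the enzyme is Sfp with the accession as filed and its product quenches rhodamine fluorescence; potency means the concentration at half of the fitted maximal effect; 0% = enzyme reaction without inhibitor and -100% = no enzyme wells; top concentration of the series not given in the record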
#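 Compounds were incubated with enzyme (final 15 nM) for 15 min at room temperature before substrate addition started the reaction. Fluorescence at 525 nm excitation, 598 nm emission was recorded immediately and after 30 minutes.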
# PINK1 modulator: PINK1 expression modulation | PINK1 immunofluorescence, high-content cytometry, 24 h | Potency, µM (top dose mostly 76.6 µM), without a hit: at the highest dose activation (PINK1 increase), usual class: activators | 0.2% of 410,000 active; active = well fitted activation curve with a large enough effect; inconclusive = small, poorly fitted or top-dose-only effect; inactive = flat fitted curve, though single readings scatter; cell line not stated here;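 further: potency means the concentration at half of the fitted maximal effect; % of control where 0% means no effect; nearly all actives have a fitted effect of over 65% in size; a mitochondrial uncoupler was the plate control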
#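 Stable cell line, 250 cells/well, 12 h attachment; compounds pinned at 5 concentrations, 24 h; CCCP control. Fixed with nuclear dye, primary antibodies 12 h at 10 degrees C, secondary plus cell stain; laser-scanning cytometer read.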
# D2 PAM: potentiates the human D2 dopamine receptor allosterically; P14416; DiscoveRx D2 beta-arrestin cells, luminescence, 90 min; 100% = 57 uM dopamine signal; potentiation, % (concentration not given with the values); 0.23% of 360,000 active; AID 624464; active = potentiation of 50% or more; inconclusive = 30% to 50%; inactive = 30% or less;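 further: compound concentration not given in the record; tested on top of an EC20 dose of dopamine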
#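 D2 cells co-treated with compound plus 50 nM dopamine (EC20) for 90 min at 37 deg C to detect potentiation. Beta-arrestin recruitment was read as enzyme-fragment luminescence after 1 h at ambient temperature. Full response was set by 57 uM dopamine.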
# CtBP-E1A blk: inhibitors of CtBP/E1A interaction | AlphaScreen GST-E1A/His-CtBP binding, 1536-well; stronger effect = lower value; control for the full effect not named in the record | activity change, % (concentration not given with the values) | 0.49% of 340,000 active | AID 651724; in the data active means activity change below about -65%; inconclusive means about -30% to -65%; inactive means above about -30%; further: on the % scale 0 is the no-effect control and ±100 the full control effect
#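 In 5 uL wells, 23 nL compound meets equimolar GST-E1A and His-CtBP (5X stock 125 nM each) for 2 h, 37 °C. Beads (5X, 50 ug/mL) then 1 h, 37 °C, dark.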
# TRPV1 PAM: potentiators of human vanilloid receptor 1 (TRPV1). Q8NER1. TRPV1-expressing cells, Fluo-8 calcium influx, capsaicin EC20 potentiation; host cell line not named in the record; control for the full effect not named in the record. potentiation, % at 8.33 µM. 0.02% of 320,000 active. AID 540277; active means potentiation above 80%; inconclusive means 30% to 80%; inactive means below 30%; further: 0% is about no effect
#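 Fluo-8 calcium influx in TRPV1-expressing cells, kinetic read (ex 480/em 520 nm). Compound added and read 3 min for agonist activity, followed by capsaicin at EC20 final and 2 min further read for enhancement.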
# Six1-Eya2 blk: Six1/Eya2 interaction inhibition; Q15475+O00167; AlphaScreen GST-Six1/His-Eya2 binding, biochemical; stronger effect = lower value; control for the full effect not named in the record; activity change, % (test concentration not listed); 0.56% of 360,000 active; AID 651725; in the data active = activity change below about -65%; inconclusive = about -30% to -65%; inactive = above about -30%; further: on the % scale 0 is the no-effect control and ±100 the full control effect; compound concentration not given in the record
# Target sequence (O00167 whole entry, looked up): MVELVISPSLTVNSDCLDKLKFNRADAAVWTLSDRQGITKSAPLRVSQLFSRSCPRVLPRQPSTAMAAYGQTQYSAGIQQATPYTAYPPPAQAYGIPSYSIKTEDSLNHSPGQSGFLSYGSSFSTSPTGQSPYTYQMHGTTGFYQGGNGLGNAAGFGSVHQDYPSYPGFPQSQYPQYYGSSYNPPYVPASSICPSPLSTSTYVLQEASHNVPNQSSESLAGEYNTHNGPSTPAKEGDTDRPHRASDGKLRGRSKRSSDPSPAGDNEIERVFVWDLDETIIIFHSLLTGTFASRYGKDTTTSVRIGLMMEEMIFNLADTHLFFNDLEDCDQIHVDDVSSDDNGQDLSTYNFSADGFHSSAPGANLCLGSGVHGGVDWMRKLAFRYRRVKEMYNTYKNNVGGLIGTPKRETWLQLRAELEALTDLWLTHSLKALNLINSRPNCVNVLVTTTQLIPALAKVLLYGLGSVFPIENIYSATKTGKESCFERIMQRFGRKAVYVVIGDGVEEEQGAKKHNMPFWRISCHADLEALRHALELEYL
# Target sequence (Q15475 whole entry, looked up): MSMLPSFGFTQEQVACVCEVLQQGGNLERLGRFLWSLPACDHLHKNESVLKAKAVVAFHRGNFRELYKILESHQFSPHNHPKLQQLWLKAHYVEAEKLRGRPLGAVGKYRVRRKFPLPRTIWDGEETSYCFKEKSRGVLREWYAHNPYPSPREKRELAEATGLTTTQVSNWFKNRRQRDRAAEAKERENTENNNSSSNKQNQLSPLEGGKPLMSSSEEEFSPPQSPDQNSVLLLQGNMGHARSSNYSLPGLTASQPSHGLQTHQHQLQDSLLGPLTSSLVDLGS
#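 Compounds are tested against tagged Six1 and Eya2 proteins bridged by glutathione donor and nickel acceptor beads; after a one-hour incubation at 37 °C without light, AlphaScreen emission is recorded.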
# D2 agonist: agonists of human D2 dopamine receptor (beta-arrestin); P14416; DiscoveRx PathHunter D2 beta-arrestin, luminescence, 90 min; 100% = 57 uM dopamine signal; activation, % (concentration not given with the values); 0.084% of 360,000 active; AID 624465; in the data active = activation above about 40%; inconclusive = about 15% to 40%; inactive = below about 15%; further: compound concentration not given in the record; the text of the record calls up to 30% inactive
#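 DiscoveRx PathHunter D2 beta-arrestin cells (2,100/well) attached overnight, then compound-stimulated 90 min at 37 C in HBSS/10 mM HEPES/0.1% Tween-20 buffer; beta-galactosidase complementation read by luminescence after 1 h at ambient temperature. Dopamine 57 uM final (EC100) as control.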
# * marks the source's active call; other numbers are inactive results; ? = inconclusive; . = no result given; & = joins results of further samples; [ ] = dose if it differs, or a comment.
SMILES,Sfp inh,PINK1 modulator,D2 PAM,CtBP-E1A blk,TRPV1 PAM,Six1-Eya2 blk,D2 agonist
CCOc1ccc(NC(=O)CN(C)C(=O)c2ccc3c(c2)S(=O)(=O)N=C2CCCCCN23)cc1OCC,.,-1.8%,-5.4,0.2,.,1.7,6.8
O=C(c1cc(Cl)nc2ccccc12)N1CCN(S(=O)(=O)c2cccc(F)c2)CC1,.,1.1%,4.2,-9.1,2.3,1.6,1.9
CC(n1cnnn1)C12CC3CC(CC(C3)C1)C2 (stereo not given),16.1%,4.3%,10.2,6.4,5.6,16.6,5.2
CCOC(=O)C1CCCN(S(=O)(=O)NC[C@H]2O[C@@H](n3cnc4c(N)ncnc43)[C@H](O)[C@@H]2O)C1 (stereo not given in full),.,-0.6%,2.7,0.0,.,28.0,-1.8
Cc1ccc(C(=O)N2N=C(CC(C)C)CC2(O)C(F)(F)F)o1 (stereo not given),21.4%,6.9%,3.5,4.2,-5.3,-14.5,4.1
Cc1cccc(/N=C/c2c(O)c3ccccc3oc2=O)n1,-2.2%,-0.9%,-4.4,-4.7,-12.1,3.7,-4.1
Cn1c(=O)c2c(ncn2CC(=O)OCC(=O)c2ccc(OC(F)F)cc2OC(F)F)n(C)c1=O,.,0.8%,0.1,0.7,.,-1.9,-2.4
C=CC[C@H](CC(=O)NCCO)C(=O)N[C@H](COC(=O)[C@@H](CC=C)Cc1ccc(F)cc1)Cc1ccccc1,.,0.8%,0.4,-17.3,.,-7.1,2.8
c1ccc(COc2ccc(OCCn3cncn3)cc2)cc1,10.5%,-0.9%,-2.8,0.3,9.3,1.0,-4.0
CCCc1nn(C)c2c(=O)[nH]c(-c3cc(S(=O)(=O)N4CCN(C)CC4)ccc3OCC)nc12,13.8%&3.0%&22.2%,1.9%,-2.9,-0.7,-7.3,-2.8,-4.9
Cc1c(O)ccc(C(=O)CN2CCN(Cc3ccccc3)CC2)c1O,-7.6%,-0.3%,-15.9,.,-2.6,7.8,7.7
Cc1c(C(=O)N2CC(C(=O)N3CCCCC3)Oc3ccccc32)oc2ccccc12 (stereo not given),.,-0.4%,-9.1,-3.4,-18.0,3.3,-1.0
O=C1C2CCCN2C(=O)N1CCN1CCN(c2cccc(C(F)(F)F)c2)CC1 (stereo not given),.,2.6%,-15.2,-23.4,.,-11.8,-2.3
CCOc1ccc(CNC(=O)Cn2nc(C)n3nc(-c4ccccc4)cc3c2=O)cc1,-3.1%,-0.9%,-3.8,.,13.2,6.0,1.9
CCC1=C([N+](=O)[O-])C(c2ccc3c(c2)OCO3)NC(=O)N1 (stereo not given),2.8%,-0.4%,-2.9,1.1,-5.4,-3.3,5.2
COc1ccc(S(=O)(=O)N(C)C[C@H]2Oc3ccc(NC(=O)Cn4cnnn4)cc3C(=O)N([C@H](C)CO)C[C@@H]2C)cc1,.,-0.2%,.,2.6,.,3.5,-6.0
CC1=CC(c2ccc(Cl)cc2)n2nc(NC(=O)c3ccccc3)nc2N1 (stereo not given),-8.3%,-1.3%,-6.2,-5.9,-28.7,-13.9,-2.5
O=C(N/N=C/c1ccc(F)cc1)c1ccncc1,25.7%,0.1%,1.5,3.0,-3.8,-2.0,-1.1
Cc1nnc(SCC(=O)NCc2ccco2)[nH]c1=O,56.2µM*,-1.5%,15.0,-11.7,16.7,-6.4,-2.3
CCOc1ccc(NC(=O)C(C)N2C(=O)c3ccccc3C2=O)cc1 (stereo not given),-2.2%,0.1%,-10.7,-15.0,20.9,1.0,1.7
CCCc1nnc(NS(=O)(=O)c2ccc(C)cc2)o1,.,1.1%,3.9,-0.4,.,14.2,-2.5
COc1ccc(OCC(=O)NC2CCCc3ccccc32)cc1 (stereo not given),0.7%,3.2%,1.3,0.9,-1.8,20.4,2.0
O=C(Cn1nnc(-c2ccccc2F)n1)Nc1ccc2c(c1)OCO2,-3.8%,-2.2%[38.3 µM],-1.3,8.1,20.7,-2.8,-1.6
CCOCCCNC(=O)C(NC(=O)CNC(=O)c1ccccc1)c1ccccc1 (stereo not given),8.7%,-2.0%,-6.1,-1.3,0.1,4.1,-0.2
O=C(Cn1cnc2ccccc2c1=O)N1CCc2ccccc2C1,19.7%,0.9%,-3.9,9.0,12.2,4.3,2.3
CCN(CC)S(=O)(=O)c1cc(OC)ccc1N=Nc1ccc(O)c2ncccc12,2.1%,?,-34.0,.,8.7,-91.5*,0.8
CCC1(C)Cc2ccccc2C(=S)N1 (stereo not given),-20.2%,0.2%,-7.1,-24.1,6.7,-6.3,6.2
Cc1cccc(OC(C)C(=O)Nc2nc(-c3cccnc3)cs2)c1 (stereo not given),.,2.5%,-9.7,-6.4,.,-9.9,-5.8
Cc1ccc(S(=O)(=O)N2CCC(=O)N(C(COCc3cccc(C(F)(F)F)c3)C(C)C)CC2)cc1 (stereo not given),9.3%,0.9%,-11.7,6.3,-26.8,3.2,-1.1
Cc1ccc(CN2C(=O)C(C)Oc3ccccc32)cc1 (stereo not given),-1.3%,10.6%,-0.2,.,-8.3,7.9,0.2
CC(=O)NCCc1nc2ccccc2n1CCCCOc1ccccc1,3.2%,0.7%,-5.2,.,-1.4,0.6,4.8
O=C(OCC(=O)N1CCCCC1)c1cc(S(=O)(=O)N2CCOCC2)c(Cl)cc1Cl,.,0.6%,-12.6,4.2,.,2.0,-2.5
O=C(C(NS(=O)(=O)c1cccs1)c1ccccc1)N1CCN(c2ccccc2)CC1 (stereo not given),1.9%,6.8%[38.3 µM],-7.8,5.5,.,-6.2,-3.2
O=C(NCc1cccc(Br)c1)C1CC(c2cc(C(F)(F)F)cc(C(F)(F)F)c2)=NO1 (stereo not given),.,6.3%,-5.0,5.9,.,4.7,-3.5
Cc1ccc(N(CC(=O)N2CCOCC2)S(C)(=O)=O)cc1,19.8%,-0.4%,-1.3,6.8,6.9,0.4,4.0
COC(=O)[C@]1(Cc2ccccc2)N[C@H](c2ccc(-c3cc(C(C)=O)cs3)cc2)[C@@H]2C(=O)N(C)C(=O)[C@@H]21,.,0.8%,-7.6,-24.3,-1.3,-6.2,0.8
Cc1ccc2nc(C)cc(C(=O)NC3CCCCCC3)c2c1,.,-0.1%,0.3,-15.6,.,2.2,-7.5
O=C(NCCCN1CCCC1=O)c1cccc(NS(=O)(=O)c2ccccc2)c1,.,1.1%,-18.8,2.5,-6.3,2.8,-0.1
COc1ccc(S(=O)(=O)Cc2ccc(C(=O)NCc3cccs3)o2)cc1,11.4%,1.9%,0.1,1.8,-1.1,-5.3,-3.7
COc1ccc(-c2cc(=O)oc3c(C)c(OCC(=O)N[C@@H](Cc4ccc(O)cc4)C(=O)O)ccc23)cc1,1.1%,1.4%,-14.3,-18.6,4.5,-18.6,-3.4
CCNS(=O)(=O)c1ccc(NC(=O)Nc2cccc(C(F)(F)F)c2)cc1,-6.7%,4.2%[38.3 µM],-11.2,-2.8,-4.7,2.7,6.9
C=CCSC(=C(C#N)C#N)c1cc2c([nH]1)CCCC2,-19.5%,-1.0%,-17.7,-1.2,-21.3,-5.4,2.7
Cc1ccc(C(=O)Oc2ccc(Br)cc2C(=S)N2CCOCC2)cc1,-23.0%,-2.1%,1.0,?,1.6,-9.7,1.0
CCOc1cc(CNC(C)C)c(Cl)cc1OCC(=O)NCCc1ccccc1,13.8%,-2.4%,-13.4,-3.7,5.1,-0.5,-2.6
CCOC(=O)CC1(C)OCC(C[N+]2(C)CCCCC2)O1 (stereo not given),-17.1%,1.8%,4.2,18.4,-7.2,3.3,-2.1

# In another format: two of the compounds above
# Order of results – Sfp inh | PINK1 modulator | D2 PAM | CtBP-E1A blk | TRPV1 PAM | Six1-Eya2 blk | D2 agonist
Cc1ccc(C(=O)N2N=C(CC(C)C)CC2(O)C(F)(F)F)o1 (stereo not given)
  21.4% | 6.9% | 3.5 | 4.2 | -5.3 | -14.5 | 4.1
Cc1cccc(/N=C/c2c(O)c3ccccc3oc2=O)n1
  -2.2% | -0.9% | -4.4 | -4.7 | -12.1 | 3.7 | -4.1

# (list continues)
SMILES,Sfp inh,PINK1 modulator,D2 PAM,CtBP-E1A blk,TRPV1 PAM,Six1-Eya2 blk,D2 agonist
CCCCOC(=O)Nc1nc2ccc([N+](=O)[O-])cc2s1,-2.4%,-0.1%,0.5,.,1.6,-3.3,4.6
Cc1cc(C)c(C(=O)CSc2nnc(N)s2)cc1C,6.1%,1.1%,1.4,0.8,-17.6,0.6,-3.2
CCc1ccc(/C=C2\SC(=S)N(CCCC(=O)Nc3ccccc3C(=O)O)C2=O)cc1,-0.9%,0.4%,14.4,10.3,-4.8,-12.1,1.2
O=C(Nc1ccccc1N1CCCC1)c1cc2ccccc2o1,-13.2%,4.5%,-28.1,-13.4,-9.0,?,-4.9
COc1ccc(S(=O)(=O)N2CCCCC2)cc1C(=O)N1CCCCCC1,.,-1.8%,-10.1,7.9,.,2.1,-0.7
COC(=O)[C@@]1(Cc2ccc(OC)cc2)[C@H]2c3cc(C(=O)N4CCCC4)n(CCO)c3C[C@H]2CN1C(=O)c1ccccc1,-6.4%&11.3%,0.6%,-11.7,2.2,7.3,0.5,-0.9
O=C(NCC(=O)N(c1cccnc1)C(C(=O)NCc1ccco1)c1ccccc1)c1ccco1 (stereo not given),16.5%,3.7%,11.6,-1.5,12.3,-3.5,1.7
COC(=O)C1C(=O)C2=C(CC1C)NC(C)=C(C(=O)OCCOc1ccccc1)C2c1ccc(C)o1 (stereo not given),1.4%,3.3%,-0.6,-24.0,-26.6,-12.3,-3.6
CCCCN(CCCC)S(=O)(=O)c1ccc2[nH]c(=O)[nH]c2c1,15.0%,0.2%[38.3 µM],4.1,-7.2,-6.2,-13.2,-0.4
COc1ccc(C(=O)NCC(=O)N=Nc2c(O)n(C)c3ccccc23)cc1OC,10.2%,-0.1%,9.5,-3.9,-5.7,0.8,0.6
COc1cccc(C(=O)N2CCN(C(=O)c3ccc(-c4ccccc4)cc3)CC2)c1OC,5.7%,0.5%,-6.8,1.1,-6.7,-1.9,-3.1

# Arranged by value in Six1-Eya2 blk (falling): some entries from above.
compound,Sfp inh,PINK1 modulator,D2 PAM,CtBP-E1A blk,Six1-Eya2 blk,D2 agonist
COc1ccc(S(=O)(=O)N2CCCCC2)cc1C(=O)N1CCCCCC1,.,-1.8%,-10.1,7.9,2.1,-0.7
COc1ccc(C(=O)NCC(=O)N=Nc2c(O)n(C)c3ccccc23)cc1OC,10.2%,-0.1%,9.5,-3.9,0.8,0.6
Cc1cc(C)c(C(=O)CSc2nnc(N)s2)cc1C,6.1%,1.1%,1.4,0.8,0.6,-3.2
CCc1ccc(/C=C2\SC(=S)N(CCCC(=O)Nc3ccccc3C(=O)O)C2=O)cc1,-0.9%,0.4%,14.4,10.3,-12.1,1.2

# Hits appear at their usual frequency. About 3.7% of those tested had a hit in this group.
